ID4 SMM: binders of human ID4 protein; P47928; small molecule microarray, Flag-ID4 binding, fluorescence F/B; calls only; hit rate 1.2% among 31,000; AID 624137;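 active means spot signal over background at p below 0.07 in all four prints; compounds were printed on slides so no solution concentration is given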;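 further: a binder raises fluorescence above local background on the spot; about 2 pmol printed per array spot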
Target sequence (P47928 whole entry, looked up): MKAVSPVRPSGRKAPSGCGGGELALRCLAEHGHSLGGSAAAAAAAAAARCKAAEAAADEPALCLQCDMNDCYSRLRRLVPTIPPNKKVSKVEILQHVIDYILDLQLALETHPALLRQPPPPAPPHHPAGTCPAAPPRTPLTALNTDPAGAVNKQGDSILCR
Calls only; i = inactive. Not all compounds are listed, so the mix of outcomes need not match the whole.

SMILES	ID4 SMM
O=C(COc1ccc([N+](=O)[O-])cc1)Nc1ccc(NC(=O)c2ccccc2)cc1	i
Cc1ccnc(NC(c2cccc(F)c2)c2ccc3ccc(C)nc3c2O)c1 (stereo not drawn)	i
Cc1cccc(-c2noc(CN(C(C)C)S(=O)(=O)c3ccc([N+](=O)[O-])cc3)n2)c1	i
CS(=O)(=O)Nc1ccc2c(c1)[C@H]1C[C@H](CC(=O)NCC(F)(F)F)O[C@H](CO)[C@H]1O2	i
C[C@@H]1CN([C@H](C)CO)C(=O)c2cc(-c3ccc(C#N)cc3)cnc2O[C@H]1CN(C)CC1CCCCC1	i
O=C(CSc1nnc(-c2ccccc2F)n1-c1ccccc1)Nc1ccc(Br)cc1	i
CCNC(=O)C[C@H]1C=C[C@H](NC(=O)C2CCC2)[C@H](CO)O1	i
COc1ccc(NC(=O)CSC2=C(C#N)C(c3ccc(Cl)cc3)CC(=O)N2)cc1 (stereo not drawn)	i
Cc1sc(NC(=S)NC(=O)c2ccco2)c(C(N)=O)c1C	i
COc1ccc2[nH]c(=O)c(CN(C)S(C)(=O)=O)cc2c1	i
CN(C)c1ccc2c(c1)[C@@H]1C[C@@H](CC(=O)NCc3ccccc3)O[C@H](CO)[C@@H]1O2	i
Cc1ccc(S(=O)(=O)NCC(=O)Nc2ccc(F)cc2F)cc1	i
NCCC(c1ccccc1)c1ccccc1	i
C[C@H](CO)N1C[C@H](C)[C@@H](CN(C)C(=O)C2CCC2)Oc2cc(-c3cccnc3)ccc2S1(=O)=O	i
OC(COc1ccccc1Cl)Cn1cnc2ccccc21 (stereo not drawn)	i
CCCc1cn(CC[C@H]2CC[C@H](NC(=O)C3CCCCC3)[C@H](CO)O2)nn1	i
C[C@H](CO)N1C[C@H](C)[C@@H](CN(C)Cc2ccccn2)Oc2ncc(C#Cc3cccc(F)c3)cc2C1=O	i
O=C(O)c1ccc(CNC(=O)c2ccc(NC(=O)c3ccco3)cc2)cc1	i
O=C(C[C@H]1C=C[C@@H](NC(=O)C2CCC2)[C@@H](CO)O1)NC1CCC1	i
O=C(CSc1nnc(-c2cnccn2)n1-c1ccccc1)Nc1ccc2c(c1)OCCO2	i
COc1ccc(C(C)C)cc1S(=O)(=O)Nc1cccc(C(=O)O)c1	i
O=C1N(CCS(=O)(=O)c2ccccc2)c2ccccc2[C@@H]2OC(c3ccc(OCCCO)cc3)=N[C@]12CCS(=O)(=O)c1ccccc1	i
CCNC(=O)C[C@H]1C=C[C@@H](NC(=O)C2CCC2)[C@@H](CO)O1	i
CN(c1ccc(C(=O)NCc2ccco2)cc1)S(C)(=O)=O	i
CCCNC(=O)N(C)C[C@@H]1Oc2ncc(-c3ccccc3F)cc2C(=O)N([C@H](C)CO)C[C@H]1C	i
COc1ccc(NC(=O)N(C)C[C@H]2Oc3ncc(C#CCN(C)C)cc3C(=O)N([C@H](C)CO)C[C@@H]2C)cc1	i
COC(=O)C1C(O)CCC2CN3CCc4c([nH]c5ccccc45)C3CC21 (stereo not drawn)	i
Cc1cc(C)nc(NS(=O)(=O)c2ccc(NC(=S)NC(=O)c3ccccc3Br)cc2)n1	i
Cc1ccc(-c2cnc3c(c2)C(=O)N([C@H](C)CO)C[C@@H](C)[C@H](CN(C)CC2CCOCC2)O3)cc1	i
CC(C)CC#Cc1ccc2c(c1)O[C@@H](CN(C)Cc1ccc3c(c1)OCO3)[C@@H](C)CN([C@H](C)CO)S2(=O)=O	i
COc1ccc(CNC(=O)C[C@@H]2CC[C@@H](NC(=O)CN(C)C)[C@H](CO)O2)cc1	i
COc1ccccc1NC(=O)CSc1nc(-c2ccc(Cl)cc2)cc(C(F)(F)F)n1	i
CN(CC(=O)Nc1ccc(Cl)c(Cl)c1)S(=O)(=O)c1ccc(F)cc1	i
CC1=CCC(C(=O)O)(C(=O)NCc2ccccc2)C(c2ccc(Br)cc2)C1 (stereo not drawn)	i
CS(=O)(=O)N(CC(=O)Nc1cccc(Cl)c1)c1ccc(F)cc1	i
Cc1ccc(-c2cc(C(=O)NCCN3CCOCC3)no2)cc1	i
Cc1ccc(CN(C)C[C@@H]2OCc3cnnn3CCCC(=O)N([C@H](C)CO)C[C@@H]2C)cc1	i
C[C@H]1CN([C@@H](C)CO)S(=O)(=O)c2ccc(-c3cccc(F)c3)cc2O[C@H]1CN(C)C	i
COCCn1cc(C(=O)N2CCC(C)CC2)c2c3ccccc3n(C)c2c1=O	i
COc1ccccc1NC(=O)N1[C@H](CO)[C@H](c2ccccc2)[C@@H]1C#N	i
COc1ccc(-c2nc(SCC(=O)Nc3ccc(Cl)cc3)[nH]c(=O)c2C#N)cc1	i
C[C@@H]1CN([C@@H](C)CO)S(=O)(=O)c2ccc(C#Cc3ccncc3)cc2O[C@H]1CN(C)S(=O)(=O)c1ccc(F)cc1	i
C[C@H]1CN([C@@H](C)CO)C(=O)c2cc(Br)cnc2O[C@@H]1CN(C)CC1CCCC1	i
CCCC#Cc1cnc2c(c1)C(=O)N([C@H](C)CO)C[C@H](C)[C@H](CN(C)C(=O)Cc1ccccc1)O2	i
O=S(=O)(c1ccccc1)c1nc(-c2ccco2)oc1NCc1ccco1	i
COc1ccc(S(=O)(=O)N(C)CC(=O)Nc2ccccc2Br)cc1Cl	i
C[C@@H]1CN([C@@H](C)CO)C(=O)c2cc(C3=CCCC3)cnc2O[C@H]1CN(C)Cc1cccnc1	i
C[C@H](CO)N1C[C@H](C)[C@H](CN(C)CC2CC2)Oc2cc(C#CCN(C)C)ccc2S1(=O)=O	i
Cc1cc(C)cc(NC(=O)CN(c2ccccc2F)S(C)(=O)=O)c1	i
CO[C@@H]1CN(C)C(=O)c2cc(NC(=O)C3CCC3)ccc2OC[C@@H](C)NC[C@H]1C	i
C[C@@H]1CN([C@H](C)CO)C(=O)c2cccc(NC(=O)C3CC3)c2O[C@@H]1CN(C)CC1CC1	i
C=CCNC(=O)[C@@H]1[C@H]2C(=O)O[C@H](c3ccccc3)[C@H](c3ccccc3)N2[C@H](c2ccc(O)cc2)[C@@]12C(=O)Nc1ccc(C#CCC(C(=O)OC)C(=O)OC)cc12	i
C[C@@H]1CN([C@H](C)CO)C(=O)c2cc(-c3cccc(F)c3)cnc2O[C@H]1CN(C)Cc1ccccc1	i
C[C@H]1CN([C@@H](C)CO)C(=O)Cc2cc(NC(=O)C3CCCCC3)ccc2O[C@H]1CN(C)CC1CC1	i
CCC(=O)N[C@@H]1CC[C@H](CCn2cc(C3CC3)nn2)O[C@@H]1CO	i
CO[C@@H]1C=C[C@@]23c4cc5c(cc4CN(CC2O)[C@H]3C1)OCO5 (stereo partly drawn)	i
COc1ccccc1-c1cnc2c(c1)C(=O)N([C@@H](C)CO)C[C@@H](C)[C@@H](CN(C)Cc1ccccc1)O2	i
COc1cccc(C#Cc2ccc3c(c2)O[C@H](CN(C)C)[C@@H](C)CN([C@H](C)CO)S3(=O)=O)c1	i
C[C@@H]1CN([C@@H](C)CO)C(=O)c2cc(-c3ccccc3F)cnc2O[C@@H]1CN(C)C(=O)C1CC1	i
CCCN(C)C[C@H]1Oc2cc(C#CCC3CCCC3)ccc2S(=O)(=O)N([C@H](C)CO)C[C@H]1C	i

Next part (two carried over from the part before).
SMILES	ID4 SMM
C[C@@H]1CN([C@@H](C)CO)C(=O)c2cc(-c3ccccc3F)cnc2O[C@@H]1CN(C)C(=O)C1CC1	i
CCCN(C)C[C@H]1Oc2cc(C#CCC3CCCC3)ccc2S(=O)(=O)N([C@H](C)CO)C[C@H]1C	i
O=C(C[C@H]1C=C[C@H](NS(=O)(=O)c2ccc(F)cc2)[C@@H](CO)O1)NCc1ccncn1	i
O=C(OCCN1CCCCC1)c1c[nH]c2ccccc12	i
O=C(C[C@H]1CC[C@@H](NC(=O)C2CCC2)[C@@H](CO)O1)NCC1CC1	i
Cc1ccc(-c2cnc3c(c2)C(=O)N([C@@H](C)CO)C[C@H](C)[C@@H](CN(C)Cc2ccccc2F)O3)cc1	i
COCCNC(=O)C[C@H]1C=C[C@@H](NC(=O)NC2CCCCC2)[C@@H](CO)O1	i
C[C@H](CO)N1C[C@H](C)[C@@H](CN(C)C(=O)C2CC2)Oc2ncc(-c3cccc(F)c3)cc2C1=O	i
Cc1ccc(C)c(Cn2c(CCCO)nc3ccccc32)c1	i
CCc1cc(OCCCSc2nc(C)cc(=O)[nH]2)ccc1Cl	i
Cc1cc(C)c(NC(=O)CN(c2cccc([N+](=O)[O-])c2)S(C)(=O)=O)c(C)c1	i
CS(=O)(=O)N(CC(=O)Nc1cc(Cl)ccc1Cl)c1ccc(Oc2ccccc2)cc1	i
Cc1cc(C)nc(SCC(=O)Nc2ccnc3ccccc23)n1	i
CCC(=O)N[C@@H]1C=C[C@@H](CC(=O)NCC2CCCCC2)O[C@H]1CO	i
C[C@H]1CN([C@@H](C)CO)C(=O)Cc2cc(NC(=O)C3CC3)ccc2O[C@@H]1CN(C)Cc1ccccc1	i
O=C(Cn1cnc2ccccc2c1=O)Nc1ccc(I)cc1	i
COc1ccc(C#Cc2ccc3c(c2)O[C@@H](CN(C)C)[C@@H](C)CN([C@@H](C)CO)S3(=O)=O)cc1	i
CCCN(C)C[C@H]1OCCCC[C@@H](C)Oc2ccc(N(C)C)cc2C(=O)N([C@H](C)CO)C[C@@H]1C	i
COc1ccc(NC(=O)c2ccc(-c3ccc(-c4noc(C)n4)cc3C)cc2)cc1OCCN(C)C	i
C[C@@H]1CN([C@H](C)CO)S(=O)(=O)c2ccc(C#CCC3CCCC3)cc2O[C@H]1CN(C)C	i
COc1cc(NC(=O)COc2ccc(Cl)cc2C)c(C(=O)O)cc1OC	i
CCC(=O)N(C)C[C@H]1Oc2ncc(Br)cc2C(=O)N([C@H](C)CO)C[C@@H]1C	i
COc1ccccc1NC(=O)COc1ccc(Br)cc1CO	i
Cc1ncsc1CCSc1nc2ccccc2c(=O)n1-c1ccccc1	i
COCC(=O)Nc1ccc2c(c1)[C@H]1C[C@H](CC(=O)N3CCOCC3)O[C@H](CO)[C@H]1O2	i
C/C=C/c1ccc2c(c1)O[C@@H](CN(C)C(=O)c1ccccc1F)[C@H](C)CN([C@H](C)CO)S2(=O)=O	i
C[C@H]1CN([C@@H](C)CO)C(=O)CCCn2nncc2CO[C@@H]1CN(C)Cc1ccccc1C(F)(F)F	i
Cc1ccc(-n2c(C)nnc2SCC(=O)Nc2cccc(C)c2C)cc1	i
C[C@@H]1CN([C@H](C)CO)C(=O)c2cc(Br)cnc2O[C@H]1CN(C)Cc1ccccc1F	i
C[C@H](CO)N1C[C@H](C)[C@@H](CN(C)CC2CCCC2)Oc2ncc(C#Cc3cccc(F)c3)cc2C1=O	i
C[C@@H]1CN([C@@H](C)CO)C(=O)c2cc(Br)cnc2O[C@H]1CN(C)C(=O)Nc1ccccc1	i
CN(C)C(=O)C[C@H]1C[C@@H]2c3cc(NC(=O)C4CCC4)ccc3O[C@@H]2[C@H](CO)O1	i
Cc1nnsc1C(=O)Oc1ccc(-c2n[nH]nc2C#N)cc1	i
COc1ccc(CNCCSc2nnnn2C)cc1OC	i
C[C@@H]1CN([C@@H](C)CO)C(=O)c2cc(C3=CCCC3)cnc2O[C@@H]1CN(C)C(=O)C1CCCCC1	i
C[C@@H]1CN([C@H](C)CO)C(=O)CCCn2nncc2CO[C@@H]1CN(C)CC1CC1	i
C[C@@H]1CN([C@H](C)CO)C(=O)c2cc(-c3ccc(F)cc3)cnc2O[C@H]1CN(C)Cc1ccccn1	i
O=C(Nc1ccccc1)Nc1ccc2c(c1)[C@@H]1C[C@H](CC(=O)N3CCCCC3)O[C@H](CO)[C@@H]1O2	i
COc1cccc(CN2CCN(C(=S)NCc3ccco3)CC2)c1	i
Cc1ccc(-c2ccc3c(c2)O[C@H](CN(C)C)[C@@H](C)CN([C@H](C)CO)S3(=O)=O)cc1	i
C[C@@H]1CN([C@@H](C)CO)C(=O)c2cc(Br)cnc2O[C@@H]1CN(C)Cc1ccccn1	i
C[C@H](CO)N1C[C@H](C)[C@@H](CN(C)C(=O)c2ccccc2)Oc2ncc(Br)cc2C1=O	i
Cc1ccccc1-c1nc(S(=O)(=O)c2ccc(Cl)cc2)c(NCCN2CCOCC2)o1	i
Cc1ccccc1-c1nnc(SCC(=O)Nc2ccc(F)c(Cl)c2)n1C	i
Clc1cc(Cl)c2nc(Oc3cccc(N4CCOCC4)c3)sc2c1	i
Cc1ccc(Nc2nc(Nc3ccc(C)cc3)nc(Sc3nnc(C)s3)n2)cc1	i
O=C(Nc1ccc(I)cc1C(=O)NCc1cccnc1)c1ccc(Cl)cc1Cl	i

13 entries from above in another layout.
| structure | ID4 SMM |
| --- | --- |
| O=C(COc1ccc([N+](=O)[O-])cc1)Nc1ccc(NC(=O)c2ccccc2)cc1 | i |
| Cc1ccnc(NC(c2cccc(F)c2)c2ccc3ccc(C)nc3c2O)c1 (stereo not drawn) | i |
| Cc1cccc(-c2noc(CN(C(C)C)S(=O)(=O)c3ccc([N+](=O)[O-])cc3)n2)c1 | i |
| CS(=O)(=O)Nc1ccc2c(c1)[C@H]1C[C@H](CC(=O)NCC(F)(F)F)O[C@H](CO)[C@H]1O2 | i |
| C[C@@H]1CN([C@H](C)CO)C(=O)c2cc(-c3ccc(C#N)cc3)cnc2O[C@H]1CN(C)CC1CCCCC1 | i |
| O=C(CSc1nnc(-c2ccccc2F)n1-c1ccccc1)Nc1ccc(Br)cc1 | i |
| CCNC(=O)C[C@H]1C=C[C@H](NC(=O)C2CCC2)[C@H](CO)O1 | i |
| COc1ccc(NC(=O)CSC2=C(C#N)C(c3ccc(Cl)cc3)CC(=O)N2)cc1 (stereo not drawn) | i |
| Cc1sc(NC(=S)NC(=O)c2ccco2)c(C(N)=O)c1C | i |
| COc1ccc2[nH]c(=O)c(CN(C)S(C)(=O)=O)cc2c1 | i |
| CN(C)c1ccc2c(c1)[C@@H]1C[C@@H](CC(=O)NCc3ccccc3)O[C@H](CO)[C@@H]1O2 | i |
| Cc1ccc(S(=O)(=O)NCC(=O)Nc2ccc(F)cc2F)cc1 | i |
| NCCC(c1ccccc1)c1ccccc1 | i |

(listing goes on)
SMILES	ID4 SMM
Cn1c(=O)c2c(nc(NCc3cccnc3)n2Cc2ccc(Cl)cc2Cl)n(C)c1=O	i
O=C(C[C@H]1C=C[C@H](NC(=O)c2ccccc2)[C@@H](CO)O1)Nc1ccc(-c2ccccc2)cc1	i
Cc1ncn2cc(-c3ccc(Cl)cc3Cl)[nH]c(=O)c12	i
COc1ccccc1-c1cc(C(F)F)n2ncc(C(=O)NCc3cccnc3)c2n1	i
C=CCN1C(=O)[C@]2(O[C@H](CCn3cc(CCO)nn3)[C@@H]([Si](C)(C)c3ccc(OC)cc3)[C@@H]2C)c2ccccc21	i

Screens: PubChem BioAssay, Broad Institute
